Screens from PubChem.
CtBP-E1A inh: CtBP/E1A binding inhibition; activity change, % (concentration not given with the values); AlphaScreen GST-E1A/His-CtBP binding, 1536-well; stronger effect = lower value; control for the full effect not named in the record; AID 651724; 340,000 tested, 0.49% active; in the data active means activity change below about -65%; inconclusive means about -30% to -65%; inactive means above about -30%; further: on the % scale 0 is the no-effect control and ±100 the full control effect
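Protein mix (5X: 125 nM each GST-E1A, His-CtBP) was incubated with pinned compound 2 h at 37 deg C in dark, in 50 mM Tris pH 8.0 buffer with 300 mM NaCl. Glutathione donor and nickel acceptor beads followed; AlphaScreen signal read after 1 h.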
TRPV1 PAM: human TRPV1 potentiation; Q8NER1; 320,000 tested, 0.02% active; TRPV1-expressing cells, Fluo-8 calcium influx, capsaicin EC20 potentiation; host cell line not named in the record; control for the full effect not named in the record; potentiation, % at 8.33 µM; active means potentiation above 80%; inconclusive means 30% to 80%; inactive means below 30%; further: 0% is about no effect
Target sequence (Q8NER1 whole entry, looked up): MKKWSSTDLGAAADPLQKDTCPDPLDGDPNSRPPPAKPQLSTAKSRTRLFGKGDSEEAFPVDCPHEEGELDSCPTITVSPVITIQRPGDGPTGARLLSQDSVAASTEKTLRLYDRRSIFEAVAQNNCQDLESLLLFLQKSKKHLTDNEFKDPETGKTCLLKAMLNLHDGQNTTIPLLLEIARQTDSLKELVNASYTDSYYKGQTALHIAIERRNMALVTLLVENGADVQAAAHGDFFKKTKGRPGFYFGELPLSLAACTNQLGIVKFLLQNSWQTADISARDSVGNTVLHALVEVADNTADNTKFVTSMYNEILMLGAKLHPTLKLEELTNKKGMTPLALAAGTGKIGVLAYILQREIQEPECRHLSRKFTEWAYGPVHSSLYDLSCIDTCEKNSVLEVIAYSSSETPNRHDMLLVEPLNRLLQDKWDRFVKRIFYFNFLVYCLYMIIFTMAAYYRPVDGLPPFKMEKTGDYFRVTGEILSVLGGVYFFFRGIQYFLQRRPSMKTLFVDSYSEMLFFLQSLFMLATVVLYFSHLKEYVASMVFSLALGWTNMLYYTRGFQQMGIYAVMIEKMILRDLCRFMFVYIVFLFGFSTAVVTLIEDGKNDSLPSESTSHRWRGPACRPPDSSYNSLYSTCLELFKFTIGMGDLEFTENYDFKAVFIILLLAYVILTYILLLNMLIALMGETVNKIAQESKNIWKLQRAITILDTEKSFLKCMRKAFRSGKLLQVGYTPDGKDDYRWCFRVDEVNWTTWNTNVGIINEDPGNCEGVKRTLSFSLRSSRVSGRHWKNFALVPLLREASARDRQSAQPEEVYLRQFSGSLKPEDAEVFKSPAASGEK
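Cells expressing TRPV1 were dye-loaded with Fluo-8 and read kinetically: 10 s baseline, 3 min after compound (agonist portion), then 2 min after EC20 capsaicin (allosteric enhancer portion). Calcium-bound dye fluorescence at 480/520 nm.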
TRPML1 agonist: agonists of human TRPML1 channel; AID 624414; TRPML1-expressing cells, Ca2+ dye fluorescence, FDSS; host cell line not named in the record; reference of the full effect not given here; activation, % (concentration not given with the values); 410,000 tested, 0.12% active; Q9GZU1; in the data active = activation above about 50%; inconclusive = about 30% to 50%; inactive = below about 30%; further: 0% is about no effect; the text of the record puts the active cut at 80%
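In this qHTS format, compounds were pin-transferred onto Ca8-dye-loaded TRPML1-DL cells induced with Tet overnight, and intracellular Ca2+ fluorescence was recorded kinetically for 110 s after a 10 s baseline. A subsequent 4uM final 54-4 (EC80) addition followed by a second 110 s read served as the antagonist phase.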
TRPML1 inh: human mucolipin-1 channel inhibition | 390,000 tested, 0.02% active | activity change, negative = inhibition, % (concentration not given with the values) | TRPML1-inducible cells, Ca2+ dye fluorescence, FDSS; stronger effect = lower value; inhibition of EC80 agonist-evoked calcium signal | Q9GZU1 | AID 624415; in the data active means activity change below about -50%; inconclusive means about -30% to -50%; inactive means above about -30%;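 further: stimulus is agonist 54-4 at its EC80 concentration; on the % scale 0 is the no-effect control and ±100 the full control effect; compound concentration not given in the record; the text of the record puts the active cut at -80%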
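Calcium fluorescence in TRPML1-DL cells induced overnight with Tet: a 110 s read after compound pin addition, then a 110 s antagonist read after challenge with 54-4 at 4 uM final (EC80).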
D2 potentiator: positive allosteric modulators of human D2 dopamine receptor; DiscoveRx D2 beta-arrestin cells, luminescence, 90 min; 100% = 57 uM dopamine signal; potentiation, % (no concentration beside the values); P14416; 360,000 tested, 0.23% active; active = potentiation of 50% or more; inconclusive = 30% to 50%; inactive = 30% or less;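 further: compound concentration not given in the record; tested on top of an EC20 dose of dopamine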
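PathHunter D2 cells, attached overnight at 37 deg C, received compound in DMSO plus dopamine at EC20 (50 nM final) for 90 min at 37 deg C. Beta-arrestin recruitment was read as luminescence after 1 h with detection reagent at ambient temperature.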
Six1-Eya2 blk: blocks human Six1 binding to Eya2; Q15475+O00167; AlphaScreen GST-Six1/His-Eya2 binding, biochemical; stronger effect = lower value; control for the full effect not named in the record; activity change, % (test concentration not listed); 360,000 tested, 0.56% active; AID 651725; in the data active = activity change below about -65%; inconclusive = about -30% to -65%; inactive = above about -30%; further: on the % scale 0 is the no-effect control and ±100 the full control effect; compound concentration not given in the record
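Compounds are tested against tagged Six1 and Eya2 proteins bridged by glutathione donor and nickel acceptor beads; after a one-hour incubation at 37 °C without light, AlphaScreen emission is recorded.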
* marks the source's active call; other numbers are inactive results; ? = inconclusive; . = no result given; & = joins results of further samples.

Compound	CtBP-E1A inh	D2 potentiator	TRPML1 inh	Six1-Eya2 blk	TRPV1 PAM	TRPML1 agonist
C=C(C)COc1ccc(-c2nc(N)ncc2Oc2ccccc2OC)c(O)c1	-9	-8	21	-15	6	-0.5
CC(C)CCNc1ncnc2c1nnn2Cc1ccccc1Cl	-13	3	26	5	-21	0.7
COC(=O)c1ccc(C(=S)NCC2(N(C)C)CCCCC2)cc1	-9	-6	14	-5	-16	13
COc1ccc(-n2c(=O)c(CCC(=O)N3CCN(c4ccccc4O)CC3)nc3ccccc32)cc1	1	16	13	-11	6	0.0
COC(=O)c1c(-c2ccccc2)noc1C	9	-2	-7	18	-2	0.3
O=S(=O)(c1ccc(Br)cc1)N1CCN(Cc2ccco2)CC1	-3	12	-5	-12	-16	0.0
CC(C)(Oc1ccc(CCNC(=O)c2ccc(-c3ccc(Cl)cc3)o2)cc1)C(=O)O	.	-1	7	-3	25	-1.1
Cc1cc(C)cc(C(O)c2ncc(-c3ccccc3C)[nH]2)c1 (stereo unspecified)	1	-15	40	-6	.	-0.5
CC(c1ccccc1)N(C)C(=O)CN1CCN(S(=O)(=O)c2ccc3c(c2)OCCCO3)CC1 (stereo unspecified)	.	-2	-6	0	-1	0.5
O=C(CN1C(=O)c2ccccc2S1(=O)=O)N1CCN(Cc2ccc3c(c2)OCO3)CC1	4	-17	5	5	-5	-0.4
CCN1CCN(Cc2nc3c(c(=O)n(C)c(=O)n3C)n2Cc2cccc3ccccc23)CC1	10	-5	-2	0	3	0.4
COc1cc(C(CC(=O)Nc2ccc(Cl)cn2)N2Cc3ccccc3C2=O)cc(OC)c1OC (stereo unspecified)	.	-5	-7	-8	-8	0.4
O=C(Nc1cccc2ccccc12)/C(=C/c1ccc([N+](=O)[O-])cc1)NC(=O)c1ccccc1	-4	-11	0	-9	.	0.0
Cc1ccc(-c2noc(CCC(=O)N3CCN(c4cccc(C(F)(F)F)c4)CC3)n2)cc1	0	-14	6	-9	-33	2.4
Cn1c(SCC(=O)NC(C)(C)C)nnc1-c1ccc(C(C)(C)C)cc1	1	2	0	1	22	-0.8
CCN(C[C@H]1N[C@@](CC)(C(=O)OC)[C@H]2C(=O)N(C)C(=O)[C@@H]12)C(=O)Nc1ccc(C)cc1	-8	.	3	5	.	0.6
COc1ccc(NC(=O)Cn2nnc(C(=O)NCc3cccs3)c2N)cc1	6	-6	-7&10	2	-6	-0.5&-1.0
C=CCNc1ccccc1S(=O)(=O)NCc1ccccc1	-12	4	45	4	.	1.1
O=C(CN1C(=O)NC2(CCCCC2)C1=O)N1CCN(S(=O)(=O)c2cccc([N+](=O)[O-])c2)CC1	3	-17	0	1	-1	-0.4
COC(=O)c1ccc(NC2=C(Cl)C(=O)OC2OC(=O)c2ccccc2)cc1 (stereo unspecified)	2	-10	2	-3	-6	-0.9
O=C(NCCCn1ccnc1)c1ccncc1	4	-4	-16	4	?	-0.1
COc1ccc(/C=N/NS(=O)(=O)c2ccccc2)cc1OS(=O)(=O)c1ccccc1	4	-14	2	-12	5	0.2
CSc1nc2ccc(NC(=O)C3CC(=O)N(Cc4ccccc4)C3)cc2s1 (stereo unspecified)	?	-15	9	?	-5	2.4
O=S(=O)(Nc1ccc(O)c(NS(=O)(=O)c2ccccc2)c1)c1ccccc1	2	6	7	-10	20	0.4
CCOC(=O)N1CCC(NC(=O)CSc2cc(=O)n(C)c3ccccc23)CC1	-9	-13	-2	-16	-6	-0.5
CCCC(=O)Nc1nnc(-c2ccc3c(c2)OCO3)s1	5	-2	-2	3	-2	1.3
COc1ccc(/C=N/NC(=O)CSCc2ccc([N+](=O)[O-])cc2)cc1OC	2	9	6	-6	-2	1.3
O=C(Nc1ccc(C(=O)N2CCCC2)cc1)c1ccccc1Br	7	-1	-4	12	1	1.2
CC(C)NC(=S)N1CCN(C/C=C/c2ccccc2)CC1	-1	-14	3	-10	19	-0.2
N/C(Cc1cccs1)=N\OC(=O)COc1ccccc1	18	-10	-28	33	1	0.6
CC(=O)Nc1cccc(/C(C)=N/NC(=O)c2cccc(S(=O)(=O)N3CCCC3)c2)c1	-3	-15	3	-8	.	-0.6
Cn1c(C(O)c2ccc3c(c2)OCO3)nc2ccccc21 (stereo unspecified)	-2	-12	5	-2	10	-1.0
COC(=O)C1=C(C)N(Cc2ccccc2)C(=NCc2cc(OC)c(OC)c(OC)c2)N[C@H]1c1ccc(Br)cc1	-2	-9	-20	-3	12	1.4
COCCNC(=O)CCn1nc(-c2ccc(C)cc2)c2ccccc2c1=O	0	-5	16	5	-13	-0.8
CCn1nc(C(=O)OCC(=O)N2CCc3ccccc32)c2ccccc2c1=O	-6	10	-5	4	-6	2.7
COc1ccc(-c2nnn(CC(=O)N(CCN3CCOCC3)C(C(=O)NC3CCCCC3)c3ccco3)n2)cc1 (stereo unspecified)	.	-3	-11	2	-3	1.4
CCOC(=O)N1CCN(C2CCCN(C(=O)c3cccc(N(C)C)c3)C2)CC1 (stereo unspecified)	1	2	2	-2	30	-0.1
CC(C)NC(=O)C1(C#N)C=C1c1ccccc1 (stereo unspecified)	3	.	.	2	.	-0.6
NS(=O)(=O)c1ccc(CNC(=O)c2cc(-c3cccnc3)nc3ccc(Br)cc23)cc1	-24	-1	4	-10	-13	0.9
C=CCN1C(=O)CSC1=Nc1ccc(NC(C)=O)cc1	.	-5	-1	2	29	3.9
Cc1ccc(C(=O)CCC(=O)Nc2cccc(C)c2)cc1	3	-6	-9	17	-4	0.7
COc1ccc(C2C(C(=O)c3ccc(C)o3)=C(O)C(=O)N2CC2CCCO2)cc1OC (stereo unspecified)	10	3	17	5	3	-0.4
O=C1NC(=O)C2(CCCC2c2ccccc2)N1 (stereo unspecified)	4	-13	-1	7	.	0.3
Cc1ccc(-n2cc(CNCCCn3cccn3)c(-c3cccc(C)c3)n2)cc1	-4	-10	47	-17	1	2.7
O=C(O)c1ccc(NC2=C(n3nnc4ccccc43)C(=O)c3ccccc3C2=O)cc1	-25	16	3	-23	7	-0.5
COc1ccc(N2CCN(C(=O)C(=O)c3c(C)n(C)c4ccccc34)CC2)cc1	8	-8	-22	-11	10	-0.2
C[C@]1(C(=O)NCCN2CCOCC2)C=C[C@@H](Cc2ccccc2)N1C(=O)c1ccccc1	.	-12	-13	2	-5	0.0
c1ccc(-c2noc(-c3ccco3)n2)nc1	-5	-2	24	-6	-5	-0.7
Cc1c(C(=O)N2CCC[C@H]2CO)oc2c(F)cccc12	-21	-6	-11	3	-3	-0.2
Cc1[nH]c(=O)c(C#N)c(C)c1Cl	.	-16	2	0	9	-0.1
C/C(CC(=O)Nc1ccc(N(C)C)cc1)=N\NC(=O)c1ccc(C(C)(C)C)cc1	.	-26	20	-2	-14	-0.6
COc1cccc(-c2cc(C(F)(F)F)nc(-n3cccn3)n2)c1	-22	-9	4	-15	-4	-0.5
CCCCn1c(N)c(N(CCOC)C(=O)C2CC(=O)N(Cc3ccco3)C2)c(=O)[nH]c1=O (stereo unspecified)	3	-2	-4	7	5	-0.7
CCOC(=O)C1=C2c3ccc4ccccc4c3CC(C)(C)N2C(=O)C1=O	0	-15	-1	-13	-9	1.8
OCCNCc1cc(Br)ccc1OCc1ccccc1	1	-36	-2	-3	-5	-0.9
COc1ccccc1C(=O)NNC(=O)c1ccc(NC(=O)CC(C)C)cc1	.	15	3	-22	-7	2.1
CC(=O)Nc1nc(C)nc(-c2ccccc2OC(C)=O)n1	8	7	-8	5	-10	0.6
COc1ccc(N(C)C(=S)Nc2ccc3nc(C)c(C)nc3c2)cc1	-1	-5	8	1	7	-0.5
O=C(NCCn1cc(SCC(=O)N2CCOCC2)c2ccccc21)c1c(F)cccc1F	-1	3	-1	-2	-1	0.1
CC(C)CC(=O)Nc1c2c(nn1-c1cccc(Cl)c1)CS(=O)C2 (stereo unspecified)	13	-5	2	5	-20	-1.1

The last four records of the part before open the next one:
Compound	CtBP-E1A inh	D2 potentiator	TRPML1 inh	Six1-Eya2 blk	TRPV1 PAM	TRPML1 agonist
CC(=O)Nc1nc(C)nc(-c2ccccc2OC(C)=O)n1	8	7	-8	5	-10	0.6
COc1ccc(N(C)C(=S)Nc2ccc3nc(C)c(C)nc3c2)cc1	-1	-5	8	1	7	-0.5
O=C(NCCn1cc(SCC(=O)N2CCOCC2)c2ccccc21)c1c(F)cccc1F	-1	3	-1	-2	-1	0.1
CC(C)CC(=O)Nc1c2c(nn1-c1cccc(Cl)c1)CS(=O)C2 (stereo unspecified)	13	-5	2	5	-20	-1.1
CCn1c(=NC(=O)CCS(=O)(=O)c2ccccc2)sc2cccc(OC)c21	-1	4	-1	-1	-7	2.6
N=c1ccn(Cc2ccc([N+](=O)[O-])cc2)cc1	-7	-5	1	2	12	-0.6
COc1ccc(CCN=C(N)C(C)c2ccccc2)cc1OC (stereo unspecified)	5	-7	19	9	7	-0.6
CCOC(=O)C1=C(COC(=O)c2ccc([N+](=O)[O-])o2)NC(=O)NC1C (stereo unspecified)	-5	0	6	5	1	0.2
CN(C(=O)c1cccc(NC(=O)Cc2ccc(NC(=O)C3CCN(S(=O)(=O)c4cccc([N+](=O)[O-])c4)CC3)cc2)c1)C1CCCC1	-9	12	-3	-4	.	-0.2
CCC(C)[C@H]1CN=C(N)N1CCCc1cc(OC)c(OC)c(OC)c1 (stereo partly specified)	.	-6	9	0	-28	-0.3
Cc1ccc(C(=O)OCCc2sc[n+](Cc3ccccc3)c2C)cc1	9	-6	22	3	?	-0.4
CC(C)Nc1nc(-c2ccccc2)nnc1-c1ccccc1	.	-3	8	1	-1	3.1
COc1ccc(COC(=O)CN2C(=O)NC3(CC(C)CC(C)(C)C3)C2=O)cc1F (stereo unspecified)	-2	-4	-9	-16	.	-0.3
O=C1/C(=C/c2ccc(O)cc2)SC(=S)N1Cc1cccnc1	-2	-9	14	10	28	6.9
COc1ccc(C(c2nnnn2-c2c(C)cccc2C)N2CCN(C/C=C/c3ccccc3)CC2)cc1 (stereo unspecified)	1	-14	.	-4	.	15
CC(C)c1nc(=S)c2ccccc2[nH]1	2	5	-12	-4	4	-0.5
COc1ccc(-n2c(SCC(=O)NCc3cccs3)nnc2-c2ccoc2C)cc1	6	-13	9	-9	1	0.6
CCOC(=O)C(CSCC(=O)c1ccc(Cl)cc1)NC(=O)OC(C)(C)C (stereo unspecified)	11	-17	1	1	-19	-0.6
O=C(Nc1cccnc1)c1cc(-c2cccs2)on1	-17	-9	11	-2	-14	-0.3
CSc1nc(-c2ccccc2)nc(NC(C)=O)c1C(C)=O	.	-5	3	-2	8	1.4
